Screens deposited in PubChem by National Center for Advancing Translational Sciences (NCATS).
VACV Venus inh = qHTS for Stage-Specific Inhibitors of Vaccinia Orthopoxvirus: Venus Reporter Primary qHTS. Potency, µM (series often up to 36.5 µM), inactives show at the highest dose activity change, negative = inhibition, usual class: inhibitors. Vaccinia virus Venus reporter expression, fluorescence. 0.46% of 330,000 active. AID 720580, 2013; active means well fitted inhibition curve with a large enough effect; inconclusive means small, poorly fitted or top-dose-only effect; inactive means no such curve, though single readings can be large or run the other way; tested in A549 cells; further: nearly all actives have a fitted effect of over 30% in size; inactives centre near -10
Vaccinia mCherry = qHTS for Stage-Specific Inhibitors of Vaccinia Orthopoxvirus: mCherry Reporter Primary qHTS; 0.63% of 310,000 active; Potency, µM (highest dose often 36.5 µM), for inactives: top-dose activity change, negative = inhibition, hits mostly inhibitors; Vaccinia virus mCherry reporter infection, fluorescence; about a quarter of the inactives have no number; active = well fitted inhibition curve with a large enough effect; inconclusive = small, poorly fitted or top-dose-only effect; inactive = no such curve, though single readings can be large or run the other way; tested in A549 cells; further: nearly all actives have a fitted effect of over 35% in size; inactives centre near -10
* hit, by the source's call; i = inactive; ? = inconclusive; nt = no result given; [ ] = another dose, or the depositor's remark. On the % scale 0 is the no-effect control and ±100 the full control effect; potency means the concentration at half of the fitted maximal effect. Random draw from the library; about 0.87% have a hit in one of these screens.

SMILES	VACV Venus inh	Vaccinia mCherry
CC(=O)c1c(C)nc(-c2ccccc2)nc1NC(=O)Cc1ccccc1	-8%	i
CC(=O)c1cccc(NC(=O)Cn2c(=O)oc3cc(S(=O)(=O)NCc4ccccc4)ccc32)c1	1%	-13%
Cc1ccc(-c2nc(Nc3ccc(O)cc3)c3ccccc3n2)cc1	-26%	?
O=C(NCc1cccnc1)c1csc2c1CCCC2	-12%	-3%
COc1ccc(CNC(=O)CCc2c(C)nn(-c3ccc(N4CCOCC4)nn3)c2C)cc1	-1%	1%
COC(=O)C[C@@H]1CC[C@@H](NS(=O)(=O)c2ccc(F)cc2)[C@@H](CO)O1	-17%	-9%
O=C1NC(=S)S/C1=C\c1cc(Cl)ccc1Cl	-27%	-17%
O=C(/C=C/c1cccs1)Nc1ccc([N+](=O)[O-])cc1	-16%	-6%
COc1ccc(/C=N/NC(=O)c2ccc3nc[nH]c3c2)cc1	-26%	-17%
COc1ccc(-c2ccc(C(=O)Nc3ccccc3)c3occc23)c(C)c1	-9%	i
C/C(=N\Nc1ncc(Cl)cc1Cl)c1ccc(OC(F)F)cc1	-20%	-25%
CC(=O)N1CCN(C(=O)CNc2cc(C(F)(F)F)ccc2OCC(F)(F)F)CC1	-9%	i
Cc1cc(Cl)ccc1NC(=O)CCCn1nc(C)c2c(C)n(-c3ccccc3)nc2c1=O	-14%	-15%
CCc1ccc(CNc2ncnc3onc(-c4ccc(Cl)cc4)c23)cc1	-8%	-5%
COc1cccc(C(=O)Nc2c[nH]c(=O)[nH]c2=O)c1	1%	-5%
COc1cc2c(cc1OC)C13CCN4CC5CCOC6CC(=O)N2C1C6C5CC43 (stereo not drawn)	-21%	-15%
Cn1cnc(CCN)c1	-13%	-14%
COc1ccccc1NS(=O)(=O)c1ccc(C(=O)N2CCN(c3ccccc3O)CC2)cc1	-24%	-8%
Cc1ccc(C(=O)OCC(=O)NCc2cccs2)cc1C	-10%	-4%
Cc1ccc(/C=C/C(=O)Nc2ccc(S(=O)(=O)Nc3onc(C)c3C)cc2)cc1	-10%	-13%
COc1ccccc1NS(=O)(=O)c1cc([N+](=O)[O-])ccc1N/N=C/c1sc(N2CCOCC2)nc1-c1ccccc1	8%	i
Nc1nc(Sc2ccc(C(F)(F)F)cn2)n[nH]1	-8%	i
CC1CCN(S(=O)(=O)c2ccc3c(c2)N(CC(=O)NC(C)c2ccccc2)C(=O)CS3)CC1 (stereo not drawn)	-14%	-19%
Cc1cc(NC(=O)C(=O)NCc2cccc(Cl)c2)no1	-3%[7.34 µM]	i[7.34 µM]
O=C(O)C1CCCCC1C(=O)NCCc1ccccc1 (stereo not drawn)	-6%	i
CCc1ccc(NS(=O)(=O)c2cc(Br)cc3c2N(C(C)=O)CC3)cc1	-7%	-8%
Cc1ccc(NC(=O)COC(=O)CCn2c(C)csc2=O)cc1S(=O)(=O)N1CCOCC1	-12%	i
CCCCn1c(=O)[nH]c(=O)c2c1nc(-c1ccccc1F)n2Cc1ccccc1	-15%	i
O=C(COc1ccccc1)N(Cc1cccnc1)c1nc2c(F)cccc2s1	1%	-12%
CCc1nn(CC(=O)NCCc2ccc(OC)cc2OC)c(=O)c2cc3sccc3n12	3%	-12%
COC(=O)C1=C(C(=O)OC)C(c2ccccc2O)c2sc(=O)[nH]c2S1 (stereo not drawn)	16%	-11%
Cc1ccc(Cl)cc1N1CCN(C(=O)CN2C(=O)CSc3c2c(C)nn3-c2ccccc2)CC1	-6%	-6%
Cc1nc(N2CCCCC2)c2c(C)c(C(=O)Nc3ccccc3C(F)(F)F)sc2n1	-13%	-6%
Cc1cc(SCC(=O)NC2(C#N)CCCCC2)nc2c(C)cccc12	-5%	-9%
CCOC(=O)/C(=N\Nc1cccc(Cl)c1)Sc1nnc(-c2ccc(OC)cc2)n1C	2%	-12%
O=C(O)Cn1ccnc1	3%	1%
COc1ccccc1Cc1c(-c2ccc(OC)c(OC)c2)nc2c(Cl)cc(C(F)(F)F)cn12	-3%	i
Cc1ccc(Cl)c(NC(=O)COC(=O)C2CCC2)c1Cl	-2%	-11%
CCOC(=O)C1(Cc2ccccc2C)CCCN(Cc2cc(OC)c(O)c(OC)c2)C1 (stereo not drawn)	-2%	-4%
Cc1cc(C)c2cc(C#N)c(SCC(=O)Nc3cc(C)on3)nc2c1	-2%	0%
COc1ccc(F)cc1S(=O)(=O)N1CCN(c2ccccn2)CC1	-10%	-19%
Cc1oc(-c2ccc(Cl)cc2)nc1CSCC(=O)NCc1ccccc1Cl	-17%	-16%
CC(=O)Nc1ccc2nc(NC(=O)C(Cl)(Cl)Cl)sc2c1	-3%	i
CCOC(=O)C1=C(N)OC(C)=C(C#N)C1c1ccco1 (stereo not drawn)	-4%	-8%
NC1=NC(=O)CC(C(=O)Nc2cccc3ccccc23)S1 (stereo not drawn)	-3%	-26%
CCOC(=O)N=Nc1c2ccccc2c2nc3no[nH]c3nc12	0.5µM*	0.5µM*
Cc1cc(OC(C)C(N)=O)nc(-c2ccccc2)n1 (stereo not drawn)	-23%	2%
O=S(=O)(/N=C(/c1ccc(Cl)cc1)N1CCOCC1)c1ccc(Cl)cc1	15%	nt
COc1ccc(CNc2ccc(C)c(C)c2)cc1	2%	-3%
Cc1cccc(C)c1NC(=O)C(C)N1CCCC1 (stereo not drawn)	-4%	-23%
N#Cc1c(-c2ccccc2)[nH]c(=O)[nH]c1=O	-13%	i
COc1ccc(-c2cc(C(=O)OCC(=O)c3ccc(C)c([N+](=O)[O-])c3)c3ccccc3n2)cc1	-18%	-19%
CC1CCN(S(=O)(=O)N2CCC(C(=O)N3CCC(N(C)CC4CCCO4)CC3)CC2)CC1 (stereo not drawn)	-19%	-9%
Cc1ccc(-n2nc3c(c2NC(=O)c2ccccc2)CS(=O)(=O)C3)cc1C	-5%	-2%
N#Cc1c(-c2ccco2)nc(SCC(=O)Nc2cccc(Cl)c2)[nH]c1=O	1%	-7%
NC(=O)CC(NC(=O)Cc1ccc(Br)cc1)c1ccc(NCCc2cccc(F)c2)c([N+](=O)[O-])c1 (stereo not drawn)	-11%	i
COc1ccc(C(Sc2ccccc2)c2ccccc2)cc1OC (stereo not drawn)	-12%	i
CC1=NN(C(=O)c2csc(C(C)C)c2)C(O)(C(F)(F)F)C1 (stereo not drawn)	-10%	-5%
Cc1ccc(-n2ncc(C(=O)NC3CCN(Cc4ccccc4)CC3)c2C2CCN(C(=O)OC(C)(C)C)CC2)cc1C	-16%	0%
COc1cccc(NC(=O)CN(C)C(=O)/C=C/c2cn(-c3ccccc3)nc2-c2cccs2)c1	?	?

The list continues:
SMILES	VACV Venus inh	Vaccinia mCherry
COc1ccc(CC(=O)NC(CC(=O)O)c2cccc([N+](=O)[O-])c2)cc1 (stereo not drawn)	-1%	-2%
CCOCCn1ccc2c(OCC(=O)Nc3cccc([N+](=O)[O-])c3)cccc2c1=O	-26%	-2%
CCOC(=O)Cn1c(CN2CC(C)OC(C)C2)nc2c1c(=O)n(C)c(=O)n2C (stereo not drawn)	8%	8%
Cc1ccc(CN2CCN(/N=C/c3ccccc3)CC2)cc1	-4%	?
CCN(CC)CCN(C(=O)CCS(=O)(=O)c1ccccc1)c1nc2cc(C)cc(C)c2s1	-20%	-2%
CCOC(=O)c1c(C)[nH]c(C(=O)OCC(O)=C(C#N)c2nc3ccccc3[nH]2)c1C	-17%	-7%
CC1CCCN(CC(O)COCC2COc3ccccc3O2)C1 (stereo not drawn)	-9%	nt
O=C(NCCC1CCCCN1S(=O)(=O)c1ccc(F)cc1)C(=O)NC1CC1 (stereo not drawn)	-7%	i
CS(=O)(=O)C1=NN2C(=N)/C(=C\c3ccc(OCCOc4ccccc4)cc3)C(=O)N=C2S1	-11%	-24%
COc1cc(CNC23CC4CC(CC(C4)C2)C3)ccc1OCc1ccccc1	-7%	i
C=CCc1cc(Cl)ccc1OCCn1ccnc1	-18%	0%
COc1ccc(/C=C\c2nc(=O)c3ccccc3o2)cc1	-25%	-23%
O=C(CN1C(=O)C(=O)N(CCC2=CCCCC2)C1=O)Nc1ccc(F)cc1F	-20%	-4%
CN(Cc1ccccc1)C(=O)CSc1nc2ccsc2c(=O)n1-c1ccc(F)cc1	-8%	-3%
CCn1nc(NC(=O)C(C)C)c2cc3ccc(C)cc3nc21	-8%	i
CCOC(=O)c1c(C)[nH]c(C)c1S(=O)(=O)N1CCC(C(=O)N2CCN(c3ccccc3)CC2)CC1	-10%	-19%
CCOC(=O)CN1C(=O)C(O)=C(C(C)=O)C1c1ccc(F)cc1 (stereo not drawn)	-3%	nt
CCC(CC)C(=O)Nc1cccc(C(=O)NCCc2ccc(S(N)(=O)=O)cc2)c1	-14%	i
CC1CCN(CCCn2c(=S)[nH]c3c(sc4ccc([N+](=O)[O-])cc43)c2=O)CC1	-3%	3%
Cc1cc(C)c(NS(=O)(=O)c2ccc3c(c2)oc(=O)n3C)c(C)c1	-12%	-5%

Continued (7 carried over from the part before).
SMILES	VACV Venus inh	Vaccinia mCherry
CN(Cc1ccccc1)C(=O)CSc1nc2ccsc2c(=O)n1-c1ccc(F)cc1	-8%	-3%
CCn1nc(NC(=O)C(C)C)c2cc3ccc(C)cc3nc21	-8%	i
CCOC(=O)c1c(C)[nH]c(C)c1S(=O)(=O)N1CCC(C(=O)N2CCN(c3ccccc3)CC2)CC1	-10%	-19%
CCOC(=O)CN1C(=O)C(O)=C(C(C)=O)C1c1ccc(F)cc1 (stereo not drawn)	-3%	nt
CCC(CC)C(=O)Nc1cccc(C(=O)NCCc2ccc(S(N)(=O)=O)cc2)c1	-14%	i
CC1CCN(CCCn2c(=S)[nH]c3c(sc4ccc([N+](=O)[O-])cc43)c2=O)CC1	-3%	3%
Cc1cc(C)c(NS(=O)(=O)c2ccc3c(c2)oc(=O)n3C)c(C)c1	-12%	-5%
O=C(COC(=O)c1cnccn1)Nc1ccc(Cl)cn1	-17%	-18%
O=C(Nc1ccc(Cl)cn1)c1ccc2c(c1)OCCO2	-16%	-22%
Cc1cc(NC(=O)CN2C(=O)NC3(CCCCC3)C2=O)no1	3%	i
CC(=O)c1ccccc1OCC(O)CN1CCN(c2ccccn2)CC1 (stereo not drawn)	-9%	-2%
CCOC(=O)N1CCN(S(=O)(=O)c2ccc3c(c2)CCN3C(=O)CC)CC1	-13%	-13%
CCOc1ccccc1CN1CCC(N2CCC(C(=O)NC3CC3)CC2)CC1	-7%	-14%
O=c1c2c3nc4ccccc4nc3n(Cc3ccccc3)c2ncn1Cc1ccco1	-12%	-15%[1.46 µM]
O=C(COC(=O)/C=C/c1ccccc1)NCc1ccco1	-2%	i
CCCCCCCCOC(=O)c1cc([N+](=O)[O-])c(Sc2ncnc3nc[nH]c23)c([N+](=O)[O-])c1	-29%	-5%
CCOC(=O)c1sc(NC(=O)CSc2nnc(C(C)C)n2CC)nc1C	-16%	i
C=CCn1c(Cn2c(-c3cnccn3)nc3ccccc32)nc2ccccc21	1%	0%
O=C(Cn1c(=O)n(-c2ccc(F)cc2)c(=O)c2sc3ccccc3c21)NC1CCCCC1	3%	0%
COc1ccc2[nH]c3c(c2c1)CCN1C(=O)C(CC(=O)NCc2ccco2)C[C@H](C(=O)N2CCOCC2)[C@@]31C (stereo partly drawn)	-3%	-1%
CCN1CCCC1CNC(=O)c1cc(COc2ccc(C)c(C)c2)on1 (stereo not drawn)	-12%[7.34 µM]	i[7.34 µM]
Cc1ccc(-c2c(=O)n(O)c3ccccc3[n+]2[O-])cc1	-1%	i
C(=C\c1c[nH]c2ccccc12)/c1nccc2ccccc12	31%[activator]	-18%
COc1c(OC(C)=O)ccc(/C=C/c2ccc3ccccc3n2)c1[N+](=O)[O-]	-19%	-8%
CCCOc1ccc(C(=O)Nc2ccc3c(c2)OCCO3)cc1	-24%	-2%
CCOc1ccc(Nc2nc(Cc3nnc(SCC(=O)c4ccc(C)c(C)c4)o3)cs2)cc1	?	-29%
O=S(=O)(c1cccc2c(Cl)cccc12)N1CCCNCC1	-44%	-48%

Some of these compounds in order of formula weight, low to high:
SMILES	VACV Venus inh	Vaccinia mCherry
Nc1nc(Sc2ccc(C(F)(F)F)cn2)n[nH]1	-8%	i
Cc1nc(N2CCCCC2)c2c(C)c(C(=O)Nc3ccccc3C(F)(F)F)sc2n1	-13%	-6%
CCOC(=O)/C(=N\Nc1cccc(Cl)c1)Sc1nnc(-c2ccc(OC)cc2)n1C	2%	-12%
CC1CCN(S(=O)(=O)N2CCC(C(=O)N3CCC(N(C)CC4CCCO4)CC3)CC2)CC1 (stereo not drawn)	-19%	-9%

Other structures follow.
SMILES	VACV Venus inh	Vaccinia mCherry
CCOC(=O)Cn1c(C)cc(=O)c2cccc(C)c21	-17%	-4%[1.46 µM]
O=C1[C@@H]2[C@H](C(=O)N1Cc1ccco1)[C@H]1C=C[C@@H]2C1	1%	i
CCOc1cc(S(=O)(=O)n2cc(-c3ccc(F)cc3)c(N)n2)cc(OCC)c1OCC	?	nt
COc1cc(C(=O)Nc2ccc(Br)cc2C(=O)c2ccccc2)cc(OC)c1OC	-4%	nt
CC1CN(C(=O)CCC(=O)N2CCCCC2)c2cc(Cl)ccc2O1 (stereo not drawn)	-10%	i
CCCNC(=O)C1CC(=O)N(c2ccc(OCC(=O)Nc3cccc(C)c3C)cc2)C1 (stereo not drawn)	-6%	-17%

Exported with two lines to a compound: part of the list above
Under each structure – VACV Venus inh | Vaccinia mCherry
- COc1cccc(C(=O)Nc2c[nH]c(=O)[nH]c2=O)c1
  1% | -5%
- COc1cc2c(cc1OC)C13CCN4CC5CCOC6CC(=O)N2C1C6C5CC43 (stereo not drawn)
  -21% | -15%
- Cn1cnc(CCN)c1
  -13% | -14%
